Mtb hypoxia inh: PubChem AID 1159583 | fluorescence inhibition, % (concentration not given with the values) | 300,000 compounds, 0.1% hits | M. tuberculosis hypoxia-regulated fluorescent reporter, fluorescence;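 active = 35 to 45% if threefold the growth effect, above 45% if 1.5-fold the growth effect; inactive = the rest, general growth blockers included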;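 note: wells of about 50 µL received 100 nL stock; 0% = vehicle wells and 100% = reference inhibitor wells; whole bacteria with a GFP reporter of the hypoxia response; strong numbers were not always called active; many hits fall short of the cut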
Bead autofluor: counter-screen for toxin protease inhibitors: compound fluorescence | 360,000 compounds, 3.1% hits | fluorescence intensity (no concentration beside the values) | AID 624483 | compound autofluorescence counterscreen, microsphere flow cytometry; stronger effect = higher value;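 active = at least 3 SD above the mean of all compounds, about 16000 in these data; inconclusive = too few beads counted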;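 note: 100 nL of 1 mM stock went into each well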
Sa ugtP lethal: growth inhibition of ugtP-null S. aureus, primary screen, RN4220 ugtP deletion, OD600; 16 h; some inactives read as strong as hits; growth inhibition, % (concentration not given with the values); 330,000 compounds, 0.54% hits; AID 1259309, 2017;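 active = z-score under -3 and OD600 up to 0.15 on both plates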;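 note: plate controls were untreated wells for no effect and antibiotic for full effect; wells of about 80 µL received 100 nL stock; the first replicate is given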
PrP 5UTR inh: inhibition of PrP 5' UTR reporter expression | cell-based PrP 5' UTR mRNA reporter, plate reader | inhibition, % (no concentration beside the values) | 340,000 compounds, 0.35% hits;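 active = every replicate at 50% or more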;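 note: 0 = median of the neutral control wells; tested in H4 reporter cells; numbers are from one replicate; inactives centre near -14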
RN4220 kill: growth inhibition of S. aureus RN4220, primary screen, OD600 | inhibition, % (no concentration beside the values) | 330,000 compounds, 0.33% hits | AID 1259311, 2017 | 16 h;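 active = z-score of -3 or lower and OD600 up to 0.18 on both plates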;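 note: plate controls were untreated cells for no effect and reference antibiotic for full effect; stock transfer was 100 nL into about 80 µL; one replicate is shown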
BJeLR lethal: MLPCN primary cell-based screen for lethality selective to Ras in HRASV12 cells; 300,000 compounds, 0.17% hits; AID 1554, 2009; inhibition, % (no concentration beside the values); BJeLR (HRASV12) viability, CellTiter-Glo ATP luminescence, 48 h; reference of the scale not given here;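 active = replicate mean above 50%; inconclusive = above 50% but judged a plate artefact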;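 note: 50 nL library stock added to about 25 µL; numbers are from one replicate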
Mtb hypoxia inh growth: also measured in Mtb hypoxia inh; calls as there; growth inhibition, %; measured here: M. tuberculosis growth (absorbance);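 0% = vehicle and 100% = reference antibiotic; read after six days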
The depositor's hits bear a star; ? = inconclusive; / = no result given.

Each structure is followed by: Mtb hypoxia inh, Mtb hypoxia inh growth, Bead autofluor, Sa ugtP lethal, PrP 5UTR inh, RN4220 kill, BJeLR lethal
1) Cc1ccc(S(=O)(=O)N2CCN(C(=O)COC(=O)COc3cccc4c3OC(C)(C)C4)CC2)cc1
 : -5, -1, 6077, 2, -12, 2.5, -8
2) CN(C)c1ccnc(Oc2ccccc2)c1C#N
 : -7, 0, 10130, -2, -7, 2.2, /
3) O=[N+]([O-])C(N=Nc1ccccc1)=NNc1ccccc1
 : 8, -2, /, 6, /, 1.4, /
4) Cc1ccc(Cn2c(C(C)Nc3nc(-c4ccc(Cl)cc4)cs3)nc3cc(C(=O)NCCCO)ccc32)cc1 (stereo not drawn)
 : 14, 3, 4309, 4, -10, -7.9, -8
5) COc1ccccc1/C=N/NC(=O)c1cccc(NC(=O)c2ccccc2Cl)c1
 : /, /, 3648, /, -13, /, -4
6) CCOC(=O)c1c(S(=O)(=O)N(C)Cc2ccco2)c(C)n(C)c1C
 : 9, -1, 4194, 14, 9, 7.3, -4
7) Cc1ccc(O)c(N/C=C/C(=O)c2ccc(F)cc2)c1
 : 8, 5, 3348, -1, -61, 4.3, -4
8) Cn1cc(S(=O)(=O)CC(=O)Nc2ccc3c(c2)OCO3)c2ccccc21
 : -8, -4, 10535, -5, -7, 1.6, -6
9) O=C(CN1CCCc2ccccc21)NCc1ccc2c(c1)OCO2
 : -12, -1, /, -5, -11, -2.2, -2
10) Cc1cc(C(=O)NC2CC(C)(C)Cc3c2cnn3-c2ccc(F)cc2)no1 (stereo not drawn)
 : 0, 0, 5720, 4, -10, 1.8, 0
11) N#Cc1cnc2ncnn2c1-c1ccccc1
 : 2, 1, 2145, 7, -17, 2.6, 3
12) O=C(O)CSC1=NC(=Nc2cccc(Cl)c2)C2(CCCCC2)N1c1ccccc1
 : 7, 4, 2010, 13, -10, 4.1, -2
13) CCc1ccc(-c2cc(C)no2)cc1S(=O)(=O)NCCCN1CCN(c2ccccc2)CC1
 : -2, -4, 5648, 6, -12, 0.6, 3
14) Cc1ccc(CNc2nc3ccccc3s2)s1
 : /, /, 4223, 16, 20, -4.0, 4
15) COc1ccc(NC(=O)c2cc(S(=O)(=O)N3CCOCC3)cn2C)c(OC)c1
 : 2, 7, 5391, -8, -46, -11, 6
16) CCn1nc(C(=O)NCC2COc3ccccc3O2)c2ccccc2c1=O (stereo not drawn)
 : 3, 4, 6403, 2, -6, -0.4, /
17) COc1ccc(OC)c(CN(CCCN2CCOCC2)C(=O)Nc2ccccc2)c1
 : 2, 10, 6535, -1, -22, 2.8, 2
18) O=C(Cc1ccccc1)NN=C1CCCC1
 : -4, 7, 3469, -1, -16, -2.9, /
19) c1cncc(-c2noc(-c3ccco3)n2)c1
 : 2, 3, 3274, 0, -42, 4.1, 2
20) CCCCOC(=O)C1=C(C)Nc2nnnn2C1c1ccccc1Cl (stereo not drawn)
 : -105, -34, 3474, -22, -23, 2.7, 0
21) Fc1ccc(F)c(C2=NNC(=NCC3CCCO3)SC2)c1 (stereo not drawn)
 : 15, 3, 4262, 4, -59, 6.7, 5
22) CCOc1cccc2sc(N(CCCN(C)C)C(=O)c3ccc(S(=O)(=O)N(CC)Cc4ccccc4)cc3)nc12
 : 8, 9, 6433, -23, -2, 0.1, -7
23) O=C1N/C(=C\c2ccccc2)C(O)=C1C=NCc1ccccc1
 : 9, 13, 7083, 9, -95, 1.0, 9
24) COC(=O)Oc1ccc(/C=N/NC(=O)CSCc2ccc(Cl)cc2)cc1OC
 : /, /, 2398, /, -18, /, -2
25) CNC(=O)N(O)C1N(/N=C/c2ccccc2OC)C(=S)SC1(C)C (stereo not drawn)
 : /, /, 3909, /, 5, /, 2
26) CCCCC(CC)C(=O)Nc1ncc([N+](=O)[O-])s1 (stereo not drawn)
 : -3, 7, 4557, 20, -7, 5.3, -7
27) Cc1ccc(C2C(=O)N(C3CCCC3)CC(=O)N2C2CCCCC2)cc1 (stereo not drawn)
 : 5, 2, 18594*, 1, -7, 3.5, 0
28) COc1ccc(C=NOCC(=O)NCC(C)C)c(OC)c1
 : 12, 0, /, 0, /, -1.1, /
29) c1nc2sc3c(c2c2nnnn12)CCCC3
 : 10, -1, 12972, -4, -9, 4.6, 0
30) CC(=O)Nc1ccc(S(=O)(=O)NC(CSc2ccc(C(=O)O)cc2[N+](=O)[O-])C(=O)O)cc1 (stereo not drawn)
 : 0, -1, 3677, 0, -22, 1.8, -9
31) CCOC(=O)Cn1nc(-c2ccc(C)cc2)ccc1=O
 : 4, 11, 10255, -1, -42, 1.9, 3
32) CCOC(=O)COc1c(C=NOC)cc(Cl)cc1OC
 : 1, -6, /, 4, /, 2.4, /
33) O=C(C1CCC(=O)N1C1CCCCC1)N1CCC2(CC1)OCCO2 (stereo not drawn)
 : 3, 7, 6616, -3, -20, 4.0, -1
34) CC[n+]1c(/C=C/C=C/N(C(C)=O)c2ccccc2)sc2ccccc21
 : /, /, 6377, /, -6, /, 1
35) O=C(COc1ccccc1[N+](=O)[O-])OCC(=O)N1CCC(Cc2ccccc2)CC1
 : 1, -4, 3985, 1, -5, 3.9, -5
36) C=CCn1c(=O)c(C(=O)Nc2ccccc2O)c(O)c2ccccc21
 : 4, 6, 4146, -21, -10, 0.2, -1
37) Cc1ccc(S(=O)(=O)N2CCCCC2)cc1C(=O)Nc1ccc(N2CCOCC2)cc1
 : /, /, 3271, 3, -4, -2.4, 4
38) CCn1c(C)c(/C=N/Nc2nc3ccccc3s2)c2ccccc21
 : /, /, 11813, /, -26, /, -21
39) Cc1ccc(NC(=O)CN(C)CC(=O)Nc2ccc(F)c(F)c2F)c(Cl)c1
 : 6, 9, 4081, 13, -37, 6.5, 2
40) C=C(C)CNC(=S)NN=CC1=CCC2CC1C2(C)C (stereo not drawn)
 : 16, -3, /, 0, /, -2.1, /

Whole records, quoted from the list:
`CC(=O)Nc1ccc(S(=O)(=O)NC(CSc2ccc(C(=O)O)cc2[N+](=O)[O-])C(=O)O)cc1` (stereo not drawn) in the list: Mtb hypoxia inh = 0; Mtb hypoxia inh growth = -1; Bead autofluor = 3677; Sa ugtP lethal = 0; PrP 5UTR inh = -22; RN4220 kill = 1.8; BJeLR lethal = -9
`O=C(C1CCC(=O)N1C1CCCCC1)N1CCC2(CC1)OCCO2` (stereo not drawn) in the list: Mtb hypoxia inh = 3; Mtb hypoxia inh growth = 7; Bead autofluor = 6616; Sa ugtP lethal = -3; PrP 5UTR inh = -20; RN4220 kill = 4.0; BJeLR lethal = -1

Further compounds follow:
Each structure is followed by: Mtb hypoxia inh, Mtb hypoxia inh growth, Bead autofluor, Sa ugtP lethal, PrP 5UTR inh, RN4220 kill, BJeLR lethal
41) O=C(c1ccc(S(=O)(=O)N2CCOCC2)cc1)N1CCN(c2ccccc2)CC1
 : 1, -5, ?, 10, -9, 6.1, -4
42) CCc1noc(C)c1C(=O)N1CCCSC1=Nc1ccccc1Cl
 : 7, -3, 4461, 12, -6, 9.8, -1
43) Cc1ccc(OCC(=O)O/N=C(\N)c2cccnc2)cc1
 : -10, -1, 4413, -8, -31, 2.3, 17
44) CC(C)(C)C(=O)Nc1ccccc1C(=O)NCc1cccnc1
 : 2, 11, 4522, 6, -26, 4.3, -10
45) O=C(CSc1nc2ccccc2o1)N1CCN(c2ccc(Cl)cc2)CC1
 : 5, -1, 6400, 1, -11, 3.3, -5
46) COC(=O)c1ccc(CN(c2ccc(C)cc2)S(=O)(=O)c2ccc3c(c2)OCCO3)o1
 : /, /, 4288, 10, -23, 6.7, -1
47) CCCN1C=CC(=C2C(=O)c3ccccc3C2=O)C=C1
 : 3, 9, 15675, 0, 93*, 4.4, 68*
48) O=C(NCCNS(=O)(=O)c1ccccc1)N1CCOCC1
 : 10, -1, 11348, -1, -17, 1.8, -6
49) COCCCNC(=O)c1ccc(CS(=O)(=O)c2ccccc2OC)o1
 : 15, -1, 3623, 15, -11, 3.1, 1
50) CC1(OC(=O)C2CCCC2)C(=O)C=C2C=C(c3ccsc3)N(C3CCCC3)C=C2C1=O (stereo not drawn)
 : -1, -1, 3264, 2, 4, 3.3, -5
51) C#CCOc1ccc(/C=C2/C(=O)NN(c3ccc(F)cc3)C2=O)cc1OC
 : 2, 7, 3941, 8, 1, 5.3, -5
52) COc1ccc(S(=O)(=O)N2CCC(C(=O)O)(c3ccccc3)CC2)cc1
 : 15, 11, 3691, 16, -30, 3.1, 3
53) CCC(C(=O)Nc1nnc(-c2ccco2)s1)c1ccccc1 (stereo not drawn)
 : /, /, 5068, -9, -10, 2.3, 12
54) COc1ccc(NC(=O)CSc2nnc(CNC(=O)COc3ccc(Cl)cc3)o2)cc1
 : 11, -4, 2255, 5, -27, 2.0, -6
55) Cc1cc(C)nc(SCc2n[nH]c(=S)n2C)n1
 : /, /, 4732, 0, -11, 6.0, 1
56) COc1ccc(NC(=O)C2CCCN(S(=O)(=O)c3ccc(-n4cnnn4)cc3)C2)cc1 (stereo not drawn)
 : -6, -2, 3070, 8, -6, 5.5, -10
57) CCSc1nnc(NC(=O)[C@@H](NC(=O)c2cc(OC)cc(OC)c2)C(C)C)s1
 : -6, -1, 5073, -3, -8, 3.5, 5
58) COc1ccc(S(=O)(=O)N2CCCC(C(=O)NCCN3CCOCC3)C2)cc1C (stereo not drawn)
 : -3, 1, 3813, 0, -19, -2.1, -4
59) COc1ccc(NS(=O)(=O)c2cc(NC(=O)CCNC(C)=O)ccc2N2CCCCC2)cc1
 : 19, 9, 3741, -5, 2, 0.8, /
60) Cc1ccc(SCCC(=O)NCCSCc2ccco2)cc1
 : 10, 12, 4687, 5, -14, 3.0, 4
61) COc1ccc2c(c1)CC/C2=N\OC(=O)c1ccccc1OC
 : /, /, 2603, /, -8, /, -2
62) CC(=O)c1cn(Cc2ccccc2)c(=O)[nH]c1=O
 : 1, 0, 3389, 3, -3, 0.2, 1
63) Cc1cccc(-c2noc(CN(C(=O)C34CC5CC(CC(C5)C3)C4)C(C)C)n2)c1
 : /, /, 2815, 9, -44, -4.0, 5
64) FC(F)Sc1ccc(NC(=S)NC2CCC(NC(=S)Nc3ccc(SC(F)F)cc3)CC2)cc1 (stereo not drawn)
 : /, /, 3900, 1, -8, 3.1, 3
65) O=C(O)CSc1cccnc1Sc1ccc(Cl)cc1
 : 4, 6, /, 11, /, 7.5, 1
66) O=C(NC(=S)Nc1ccc(CN2CCOCC2)cc1)c1ccc([N+](=O)[O-])cc1
 : -6, 5, 2186, 10, -9, 3.3, 5
67) COc1ccccc1CNC(=O)c1csc2c1CCCC2
 : 13, 10, 4041, 4, -24, 4.3, -13
68) COC(=O)/C(C#N)=C1/C=Cc2ccccc2N1C
 : -6, 16, 4120, -7, -24, -1.4, 2
69) CC(=O)c1ccc(S(=O)(=O)N(C)CCCC(=O)N(C)Cc2ccccc2F)cc1
 : -10, -6, 5673, -2, -11, -2.4, -6
70) O=C(NCCc1ccccc1)c1ccc(CS(=O)Cc2ccc(Cl)cc2)o1 (stereo not drawn)
 : 1, 0, 4252, 33, -4, -3.6, -4
71) CCCCn1c(=NC(=O)c2ccco2)c(C(=O)OCC)cc2c(=O)n3ccccc3nc21
 : 3, 4, 3606, -4, -15, 8.7, -1
72) COc1ccc(OC)c(C=NNc2nncn2N=Cc2cc(OC)ccc2OC)c1
 : 12, 2, /, -3, /, 1.5, /
73) O=C(CSc1ccc(-c2ccco2)nn1)Nc1ccccc1F
 : 9, 5, 5562, 1, -7, 4.4, -12
74) COC(=O)c1sccc1NC(=S)N1CCN(c2ccccc2)CC1
 : 8, 9, 9914, 11, 0, 0.0, 5
75) CCN(CC)c1ccc(C=NNC(=O)c2cccc(S(=O)(=O)Nc3ccccc3OC)c2)cc1
 : -1, 5, /, 3, /, 4.5, /
76) COc1ccc(OCC(=O)N2N=C(C)CC2(O)C(F)(F)F)cc1 (stereo not drawn)
 : -12, -6, 4061, 4, -24, 7.8, -10
77) COc1cc(/C=N/NC(=O)Cc2nnc(NC(=O)c3ccccc3)s2)ccc1O
 : /, /, 5010, /, -19, /, -9
